CSC inhib – cancer stem cell viability inhibitors, primary screen, luminescence | 1.1% of 300,000 active | AID 2717, 2010 | cancer stem cell-like cells viability | inhibition, % at 7.5 µM;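 active = mean at 75% or more and at least half the replicates too; inconclusive = mean and replicates disagree; tested in HMLE shEcad cells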;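 also: 0% = median of negative and 100% = median of positive control wells; the first replicate is given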
eIF4H inh – human eIF4H binding inhibitors, primary screen, translation initiation inhibitor project, biochemical, uHTS, fluorescence polarization; Eukaryotic translation initiation factor 4H (Homo sapiens), Q15056; eIF4H fluorescence polarization binding assay; inhibition, % at 35 µM; 0.94% of 290,000 active; AID 2012, 2009;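 active = 50% or more with normal probe brightness, or confirmed in later tests; inconclusive = above 50% with abnormal brightness, or retests that disagree; inactive = below 50% or failed in later tests; about a fifth of its hits are not listed in these tables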;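 also: calls also rest on retests at 20 µM and on dose response follow-up; 0% = protein and probe with vehicle and 100% = probe without protein; strong numbers were not always called active; many hits fall short of the cut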
PABP FP inh – PABP poly(A) RNA binding inhibitors, primary screen, biochemical, fluorescence polarization, uHTS; Polyadenylate-binding protein 1 (Homo sapiens), P11940; inhibition, % at 35 µM; 1% of 290,000 active;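 active = 50% or more with normal probe brightness, or confirmed in later tests; inconclusive = above 50% with abnormal brightness, or retests that disagree; inactive = below 50% or failed in later tests; about a fifth of its hits are not listed in these tables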;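 also: calls also rest on retests at 20 µM and on dose response follow-up; controls were probe without protein and protein plus probe with vehicle; some compounds called inactive have numbers as strong as hits; many hits fall short of the cut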
Target sequence (P11940 whole entry, looked up): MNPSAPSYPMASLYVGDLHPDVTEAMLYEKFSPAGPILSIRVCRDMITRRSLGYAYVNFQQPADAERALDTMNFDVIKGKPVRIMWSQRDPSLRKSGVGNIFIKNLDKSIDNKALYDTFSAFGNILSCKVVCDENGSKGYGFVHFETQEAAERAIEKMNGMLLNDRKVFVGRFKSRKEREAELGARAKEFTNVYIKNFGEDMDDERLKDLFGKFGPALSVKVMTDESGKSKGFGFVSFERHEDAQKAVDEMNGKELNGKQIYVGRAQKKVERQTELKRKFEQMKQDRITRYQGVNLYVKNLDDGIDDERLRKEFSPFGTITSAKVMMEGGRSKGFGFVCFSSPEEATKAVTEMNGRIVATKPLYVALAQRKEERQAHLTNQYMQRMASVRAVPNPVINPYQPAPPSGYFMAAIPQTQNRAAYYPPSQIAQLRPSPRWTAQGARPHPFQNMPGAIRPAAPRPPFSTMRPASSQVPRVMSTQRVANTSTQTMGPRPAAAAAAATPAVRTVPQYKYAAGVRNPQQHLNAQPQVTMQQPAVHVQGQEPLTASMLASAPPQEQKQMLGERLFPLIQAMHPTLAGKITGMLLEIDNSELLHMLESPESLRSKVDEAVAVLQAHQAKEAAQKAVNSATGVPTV
MT1-MMP act inh – blockers of MT1-MMP proenzyme processing, primary screen, HT1080 RFP-PRO-GFP cells, GFP/RFP fluorescence | Matrix metalloproteinase-14 (Homo sapiens), P50281 | GFP/RFP ratio fluorescence, overnight; percent of plate control window, DMSO zero | GFP/RFP ratio change, % at 20 µM | 0.061% of 360,000 active | AID 651647, 2012;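 active = GFP/RFP ratio change of at least 30% with cell ATP level not reduced by more than half and red fluorescence within 50% of control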; also: strong numbers were not always called active
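Material: RFP-PRO-GFP reporter HT1080 cells. Dosing: single-point 20 µM compound, 1% DMSO. Controls: DMSO and RFP-L50D-GFP cell wells. Timing: cells overnight before dosing, compound overnight, 37 °C, 5% CO2. Measure: GFP/RFP fluorescence ratio.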
HIV Env fusion – inhibitors of HIV-1 Env-driven cell-cell fusion, primary screen, HeLa-JRFL effector, CEM21 target cells, luciferase. AID 651610, 2012. 1.1% of 360,000 active. inhibition, % at 12.3 µM;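 active = mean replicate inhibition score of at least 50 and every replicate individually at or above 50; inconclusive = only one of the two criteria met; inactive = mean below 50 and not all replicates reaching 50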;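 also: 0% = plate neutral controls and 100% = maraviroc near 300 nM; one replicate is shown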
Yeast UUG start – modulators of yeast start codon fidelity, primary screen, whole organism, S. cerevisiae, single point, plate reader | S. cerevisiae UUG-firefly luciferase reporter, luminescence/redox ratio | activity score, % at 18.7 µM | 0.13% of 350,000 active;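 active = replicate mean at a twofold rise or more, about +100% in these data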;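 also: firefly luciferase made from a UUG start codon reports start codon fidelity; reporter light over untreated wells divided by growth signal over untreated wells; some hits fall short of that in this replicate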
Rce1 inhib – yeast Rce1p protease inhibitors, primary screen, biochemical, fluorescence, cell-free homogeneous. yeast membranes, quenched prenylated peptide cleavage fluorescence. calls only. 0.27% of 290,000 active. AID 2563, 2010;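 active = fall in fluorescence gain of 50% or more versus controls, with final raw signal at or below 3038400; inconclusive = same 50% fall but final raw signal above 3038400; inactive = fall in fluorescence gain under 50%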;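 also: plate controls were neutral control wells for no effect and wells lacking membranes for full effect; tested at 10 µM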
Target sequence (Q03530 whole entry, looked up): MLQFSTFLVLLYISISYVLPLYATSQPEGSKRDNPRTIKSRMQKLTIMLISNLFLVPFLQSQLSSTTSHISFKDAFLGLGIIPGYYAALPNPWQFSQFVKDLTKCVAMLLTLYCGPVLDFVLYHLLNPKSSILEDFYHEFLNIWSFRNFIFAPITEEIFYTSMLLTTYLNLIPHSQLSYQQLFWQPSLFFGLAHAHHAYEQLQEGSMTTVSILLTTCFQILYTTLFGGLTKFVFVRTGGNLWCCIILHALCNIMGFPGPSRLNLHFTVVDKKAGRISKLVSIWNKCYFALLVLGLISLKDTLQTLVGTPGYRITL
MT1-MMP act inh RFP – further read-out of MT1-MMP act inh, marked with its call; RFP signal change, %; measured here: RFP expression control read;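 0 = vehicle wells; hits needed this value within 50% of zero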
An asterisk follows results filed as active; i = inactive; ? = inconclusive; · = no result given.

SMILES	CSC inhib	eIF4H inh	PABP FP inh	MT1-MMP act inh	MT1-MMP act inh RFP	HIV Env fusion	Yeast UUG start	Rce1 inhib
Cc1ccc(S(=O)(=O)N(C)C)cc1NC(=O)COC(=O)c1n[nH]c(=O)c2ccccc12	-12	-5	-2	3	3	-3	·	i
CCOc1ccc(C(=O)/C=C/Nc2ccc(S(=O)(=O)Nc3cc(C)nc(C)n3)cc2)cc1	·	19	4	·	·	-12	·	i
c1ccc(-c2cn(-c3ccccc3)c3[n+]2CCCS3)cc1	-1	-3	-7	1	-19	-17	·	i
CCOc1cc(NC(=S)NCCCN(C)C)c(OCC)cc1NC(=O)c1cccs1	-10	-4	-14	1	3	·	·	i
COc1ccc(N2CC(C(=O)N(C)CC(=O)Nc3ccc(Cl)c(C(F)(F)F)c3)CC2=O)c(OC)c1 (stereo unspecified)	3	·	·	7	-9	15	·	i
CCN(CC)c1ccc(/C=C2\C(=O)N(c3nnc(C)c(=O)[nH]3)N=C2C)cc1	32	?	?	33*	23*	-12	-9	i
CC(OC(=O)CCCSc1nc2ccccc2s1)C(=O)NC(N)=O (stereo unspecified)	-18	2	6	0	2	4	·	i
Cc1ccc(Cl)cc1N1CCN(C(=O)CCS(=O)(=O)c2ccc3c(c2)NC(=O)CO3)CC1	-2	-13	-24	-4	-24	-7	15	i

SMILES	CSC inhib	eIF4H inh	PABP FP inh	MT1-MMP act inh	MT1-MMP act inh RFP	HIV Env fusion	Yeast UUG start	Rce1 inhib
Cc1nc(C(=O)N(C)C)nn1-c1ccc(Cl)cc1Cl	-5	6	-4	-6	1	-27	-14	i
CCc1ccc(NC(=O)Cn2cccc2)cc1	2	11	1	5	4	-20	·	i
CC(C)(C)CC(=O)Nc1cc2c3c(c1)CCC(=O)N3CCC2	3	2	4	-2	-1	4	-5	i
O=C(COC(=O)Cc1ccccc1F)NCCNC(=O)COC(=O)Cc1ccccc1F	·	·	·	0	2	-10	-5	i
Cc1nnc(SCC(=O)Nc2sccc2C#N)s1	-5	50	22	-10	1	·	-19	i
C=CCN(CC=C)S(=O)(=O)c1ccc(NC(=S)NC(=O)/C=C/c2ccccc2)cc1	4	11	-5	-3	-3	·	-15	i
O=C(CCN1C(=O)S/C(=C\c2ccccc2)C1=O)Nc1ccc(S(=O)(=O)Nc2nccs2)cc1	-7	14	6	-2	-2	·	·	i
NC(=O)C1CCN(c2ncnc3c2c(-c2ccccc2)cn3-c2ccccc2)CC1	8	-13	-10	-7	-8	35	-13	i

SMILES	CSC inhib	eIF4H inh	PABP FP inh	MT1-MMP act inh	MT1-MMP act inh RFP	HIV Env fusion	Yeast UUG start	Rce1 inhib
CCOC(=O)/C(=N/Nc1ccccc1)c1csc(Nc2ccccc2)n1	107*	-6	3	10	5	-13	-17	i
Cc1cc(C(=O)NNc2c(Cl)cccc2Cl)n(C(C)(C)C)n1	-13	-1	2	1	1	8	·	i
CNC(=S)NNC(=O)CSCc1c(Cl)cccc1Cl	-9	-2	-8	2	-2	2	-17	i
Cc1ccc(S(=O)(=O)N2CCOCC2)cc1NC(=O)COC(=O)CCC(=O)c1cccs1	2	-2	-5	6	9	·	-11	i
COc1ccc(C(=O)NNC(=O)Cc2ccc(Cl)cc2)cc1	4	-9	-1	1	1	9	·	i
Oc1c(Cl)cc(Cl)cc1/C=C/c1ccc2cccc(O)c2n1	15	26	2	-96	-13	12	·	i
CCOc1ccc(OCCC(=O)N(CC(=O)Nc2ccccc2C(F)(F)F)Cc2ccco2)cc1	-5	·	·	-1	-2	-10	·	i
COc1ccccc1NC(=S)N(Cc1ccco1)Cc1cc2cc(C)cc(C)c2[nH]c1=O	44	1	-5	-20	-14	42	-13	i

SMILES	CSC inhib	eIF4H inh	PABP FP inh	MT1-MMP act inh	MT1-MMP act inh RFP	HIV Env fusion	Yeast UUG start	Rce1 inhib
CC1(C)CC(=O)C2=C(C1)OC1=C(C(=O)CC(C)(C)C1)C2c1ccccc1Cl	·	·	·	-3	-8	10	-12	·
Cc1cc(C)c(S(=O)(=O)NCCCn2ccnc2)cc1C	-22	-8	-3	2	0	-6	-18	i
Cc1sc2ncnc(SCC(=O)N3CCCC3=O)c2c1C	-6	-7	0	-3	0	12	-1	i
CCOc1ccccc1N(CC(=O)NCC1CCCO1)C(=O)CCC(=O)Nc1cc(C)on1 (stereo unspecified)	-8	-14	3	-2	2	11	-13	i
O=C(OC1CCOC1=O)c1cncc(Br)c1 (stereo unspecified)	13	0	9	4	2	·	-23	i
O=C(CCC(=O)N1CCOc2ccccc21)NCCCN1CCOCC1	2	-5	-1	-2	3	21	-15	i
CN(C)CCCNC(=S)N1CCN(c2nc(-c3ccccc3)cs2)CC1	37	-17	9	2	-1	21	-26	i
COC(=O)Cc1cc(=O)[nH]c(/N=C(\N)Nc2ccc(C)cc2)n1	6	6	5	-3	-3	·	-28	i

SMILES	CSC inhib	eIF4H inh	PABP FP inh	MT1-MMP act inh	MT1-MMP act inh RFP	HIV Env fusion	Yeast UUG start	Rce1 inhib
COc1ccc(C(=O)Nc2ccc(N3CCN(C(=O)c4ccccc4C)CC3)cc2)cc1	15	0	7	-2	-23	21	-9	i
O=C(NNc1ccccn1)C(c1ccccc1)c1ccccc1	-18	-1	-5	3	2	-3	-12	i
CCc1ccc(C(=O)COC(=O)CNC(=O)CNS(=O)(=O)c2ccccc2)cc1	1	14	-13	3	4	-6	-5	i
COC(=O)C1(NC(=O)NC2CCCCC2)CCCCC1	-13	2	0	1	-1	-3	·	i
CNC(=O)C1CC(=O)N(Cc2ccccc2)C(=Nc2ccc(OC)cc2)S1 (stereo unspecified)	2	-8	-16	-1	-2	-30	-9	i
NC(=O)CSc1nc(C2CC2)nc2sc3c(c12)CCCC3	0	11	-1	-4	-3	-91	·	·
CC(=O)N1CCc2ccc(S(=O)(=O)N3CCN(C)CC3)cc21	-2	2	-4	0	1	-7	·	i
N#CCSc1nnc(-c2cccnc2)n1-c1ccccc1	6	-2	-3	2	4	i	-15	i

SMILES	CSC inhib	eIF4H inh	PABP FP inh	MT1-MMP act inh	MT1-MMP act inh RFP	HIV Env fusion	Yeast UUG start	Rce1 inhib
Cc1cc(C)nc(OC(C(=O)O)C(OCCc2ccccc2)(c2ccccc2)c2ccccc2)n1 (stereo unspecified)	3	6	-1	-5	-1	13	28	i
CCN(CC(=O)Nc1ccc2c(c1)OCCO2)C(=O)/C=C/c1ccccc1	-2	-12	-13	-1	-3	-5	·	i
CC(=O)N1CCN(S(=O)(=O)c2cccc(C(=O)Nc3ccccc3N3CCOCC3)c2)CC1	1	10	1	0	-1	0	·	i
Cc1ccc2c(Cl)cc(Cl)c(OCC(=O)NC3CCS(=O)(=O)C3)c2n1 (stereo unspecified)	10	-2	-7	6	3	1	3	i
Cc1ccc(C)n1NC(=O)c1ccc(Cl)cc1Cl	5	-6	1	0	-1	·	-11	i
Cc1ccc(CNC(=O)Nc2nnc([C@H]3C[C@H](O)[C@@H](CO)O3)s2)cc1	·	·	·	-2	4	3	-25	·
CC(=O)c1ccc(NC(=O)c2cc(S(=O)(=O)N3CCOCC3)ccc2C)cc1	·	-4	4	-5	-1	-6	9	i
Cc1cc(C)c(C#N)c(N2CCSCC2)n1	-7	-2	-9	0	6	·	-13	i

SMILES	CSC inhib	eIF4H inh	PABP FP inh	MT1-MMP act inh	MT1-MMP act inh RFP	HIV Env fusion	Yeast UUG start	Rce1 inhib
Cc1ccc(C)c(C(=O)CCC(=O)NCc2ccc(Cl)cc2)c1	7	-1	1	-2	1	3	3	i
COCCNC(=O)/C(C#N)=C\c1ccc(CNS(=O)(=O)c2ccccc2)o1	-12	-1	4	-4	2	12	·	i
COc1ccc(CCN2C(=O)c3[nH]nc(-c4ccccc4O)c3C2c2cccc(O)c2)cc1OC (stereo unspecified)	-7	-2	-9	2	-6	75*	·	i
O=S(=O)(c1ccc(Cl)s1)N1CCNCC1	-6	·	·	0	0	-30	-15	·
CN(C)/C=C1\SC(=S)N(N2C(=O)C3C4C=CC(C4)C3C2=O)C1=O (stereo unspecified)	·	5	-11	-1	4	15	·	i
C=CCNCCOCCOc1ccc(C)cc1Br	4	12	?	1	4	-4	14	i
O=S(=O)(c1cccc(F)c1)N1CCc2sccc2C1c1ccc(OC(F)(F)F)cc1 (stereo unspecified)	46	-10	-3	-2	-10	17	-18	i
Cc1ccc(Nc2nc(C(=O)NCCCN3CCOCC3)cs2)cc1	-1	-11	-9	4	-2	-117	-3	i

4 records drawn at random from the list so far, as already listed:
SMILES	CSC inhib	eIF4H inh	PABP FP inh	MT1-MMP act inh	MT1-MMP act inh RFP	HIV Env fusion	Yeast UUG start	Rce1 inhib
Cc1ccc(C)c(C(=O)CCC(=O)NCc2ccc(Cl)cc2)c1	7	-1	1	-2	1	3	3	i
C=CCNCCOCCOc1ccc(C)cc1Br	4	12	?	1	4	-4	14	i
COCCNC(=O)/C(C#N)=C\c1ccc(CNS(=O)(=O)c2ccccc2)o1	-12	-1	4	-4	2	12	·	i
O=S(=O)(c1cccc(F)c1)N1CCc2sccc2C1c1ccc(OC(F)(F)F)cc1 (stereo unspecified)	46	-10	-3	-2	-10	17	-18	i

(further entries)
SMILES	CSC inhib	eIF4H inh	PABP FP inh	MT1-MMP act inh	MT1-MMP act inh RFP	HIV Env fusion	Yeast UUG start	Rce1 inhib
COC(=O)Cn1cnc2sc3c(c2c1=O)CCCC3	-9	4	28	0	3	1	-18	i
CCO/C(=C/c1sc2ccc(OC)cc2[n+]1CCCS(=O)(=O)[O-])CC	1	-4	16	11	8	-33	·	i
O=C(N/N=C/c1[nH]c2ccccc2c1Cl)c1cccc(Br)c1	14	3	12	2	-6	-78	-4	i
Cc1occc1C(=O)Nc1ccc2ccccc2c1	-3	-8	-1	1	3	·	-6	i
CCN(CC(=O)NCc1ccc(F)cc1)C(=O)/C=C/c1ccc(S(=O)(=O)N(CC)CC)cc1	·	-1	-3	-2	-10	-38	-11	i
O=C(N/N=C/C=C/c1ccc([N+](=O)[O-])cc1)c1cccs1	-9	-3	-9	-5	7	-109	-41	i
CCCN(c1ccccc1F)S(=O)(=O)c1cc(-c2cc(C)no2)ccc1OC	2	-4	3	-2	-8	1	-19	i
COc1cccc(N2CCN(C(=O)c3cccn4c(=O)c5c(C)c(C)sc5nc34)CC2)c1	-2	4	-3	7	-4	6	·	i

Source: PubChem BioAssay (several laboratories)
